Compound activity from PubChem.
RecA intein inh: Mtb RecA intein splicing inhibition; AID 2221; inhibition, %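 (about 9 µM by stock and volumes)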; cell-free RecA intein splicing, fluorescence; P9WHJ3; actives 0.75% (n = 290,000); in the data active = inhibition above about 30%; inconclusive = no clear call, values can overlap the other calls;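 note: 0% = vehicle wells and 100% = reference inhibitor control wells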
Target sequence (P9WHJ3 whole entry, looked up): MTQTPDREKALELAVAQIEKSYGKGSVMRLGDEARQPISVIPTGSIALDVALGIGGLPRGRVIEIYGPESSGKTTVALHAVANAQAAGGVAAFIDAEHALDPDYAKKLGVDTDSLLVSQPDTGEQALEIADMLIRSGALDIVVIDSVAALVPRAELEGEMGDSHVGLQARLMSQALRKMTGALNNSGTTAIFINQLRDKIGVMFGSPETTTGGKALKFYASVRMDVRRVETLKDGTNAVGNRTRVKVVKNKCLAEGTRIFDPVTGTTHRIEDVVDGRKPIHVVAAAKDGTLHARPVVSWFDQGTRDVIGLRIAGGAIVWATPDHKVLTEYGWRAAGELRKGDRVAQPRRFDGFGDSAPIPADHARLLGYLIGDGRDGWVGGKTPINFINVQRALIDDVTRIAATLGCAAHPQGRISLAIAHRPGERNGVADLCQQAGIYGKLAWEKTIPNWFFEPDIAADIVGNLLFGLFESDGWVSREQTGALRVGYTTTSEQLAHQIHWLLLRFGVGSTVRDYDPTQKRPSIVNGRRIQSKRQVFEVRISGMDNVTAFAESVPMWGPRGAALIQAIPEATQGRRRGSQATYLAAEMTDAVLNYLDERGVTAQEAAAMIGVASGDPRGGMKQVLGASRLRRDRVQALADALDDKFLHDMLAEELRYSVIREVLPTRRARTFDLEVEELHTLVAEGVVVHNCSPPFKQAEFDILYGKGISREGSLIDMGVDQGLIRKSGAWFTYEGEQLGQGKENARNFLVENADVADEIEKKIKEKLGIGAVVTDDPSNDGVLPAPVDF
Mtb H37Rv: M. tuberculosis H37Rv growth inhibitors, H37Rv strain (AID 1626); one-dose inhibition, % at 10 µM; IC50 in µM for titrated hits; M. tuberculosis H37Rv growth inhibition; higher % means a stronger effect; actives 0.95% (n = 220,000);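 active = confirmed in a dose series; inconclusive = inhibition above 80% but not taken into the dose series; inactive = below 80% or under 30% at every dose of the series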;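 note: bacteria incubated seven days before Alamar blue readout; 0% = bacteria only wells and 100% = bacteria with antibiotic wells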
Mtb betalactam: beta-lactam sensitization of Mtb H37Rv | actives 0.27% (n = 330,000) | inhibition, % at 25 µM | M. tuberculosis H37Rv growth with meropenem, percent inhibition; hits of this screen are not shown here;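 active = about 74% or more and at least 40 points above the plate without the antibiotic, then above 30% in a dose series; inconclusive = first-round hits that could not be retested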;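 note: growth measured after seven days incubation then overnight dye step; 0% = bacteria only wells and 100% = bacteria with antibiotic; twin plates without the antibiotic show which effects depend on it; some results filed as inactive read as strong as hits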
YopH inh: blocks Yersinia enterocolitica YopH tyrosine phosphatase. actives 0.16% (n = 140,000). fluorescence Ex485/Em525. AID 898. inhibition, %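 (about 10 µM by stock and volumes)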;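 active = inhibition of 50% or more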;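 note: controls were vehicle for no effect and minimum signal wells for full effect; inactives centre near -20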
Arbovirus anti: antivirals against arbovirus infection. arbovirus infection cell-based antiviral screen. inhibition, % at 10 µM. actives 0.37% (n = 200,000). AID 1251;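 active = inhibition from about 30%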;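 note: bluetongue infection of BSR cells; cell survival read as ATP light after 72 h; 0% = infected wells without compound and 100% = uninfected wells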
Arbovirus anti repeat: also measured in Arbovirus anti; calls as there; inhibition, %; measured here: 10K subset replicate screen; many hits read low in the repeat;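 first of two repeat runs on a subset; 0% = infected and 100% = uninfected wells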
* hit, by the source's call; ? = inconclusive; / = not tested or not shown. A portion of the library; rates above refer to the full screens.

SMILES	RecA intein inh	Mtb H37Rv	Mtb betalactam	YopH inh	Arbovirus anti	others
O=S(=O)(c1ccc(OCC(O)CNC23CC4CC(CC(C4)C2)C3)c(Cl)c1)N1CCOCC1 (stereo not given)	-0.9	5%	7	/	-12
OC(C#Cc1ccccn1)c1cccs1 (stereo not given)	4.9	3%	78	-13	-5
Fc1ccc(C2CC(c3ccco3)=NN2c2ccccc2)cc1 (stereo not given)	-2.9	-8%	-3	-3	1
O=C(Nc1ccccc1C(=O)NCCc1ccccc1)c1ccco1	2.8	-7%	-10	3	-6
CNC(=O)COc1ncnc2sc(C)c(C)c12	-12	-13%	-2	9	-5
Clc1ccc(CNC2CCN(Cc3ccccc3)CC2)cc1	0.8	/	7	/	/
CCCCCCCCCC(=O)N/N=C/c1ccc(C)s1	-0.7	70%	95	0	-49
O=C(O)CCCC(=O)Nc1nc(-c2ccccc2)cs1	-0.4	-7%	-1	-55	3
CC(C)C(NC(=O)c1ccc(F)cc1)C(=O)OCC(=O)N1CC(=O)Nc2ccccc21 (stereo not given)	-3.2	1%	-4	-32	3
COCc1cc(C)nc(N/N=C/c2ccc(Cl)c(Cl)c2)c1C#N	-3.5	7%	4	-8	3
CC1CCN(C(=O)Oc2ccccc2)CC1	0.1	8%	-2	/	0
O=C(O)c1ccc(NC(=O)c2ccccc2NC(=O)c2ccccc2Br)cc1	-0.8	/	-7	/	/
Cc1ccccc1Oc1ccc(-c2nc(N)nc(N)n2)cc1	0.8	0%	0	-19	-15
COc1ccc(NC(=O)C(CCS(C)(=O)=O)NC(C)=O)cc1 (stereo not given)	-0.5	-7%	-14	-24	1
CC1CCCN(C(=O)c2cc3c(-c4ccc(Cl)cc4)nn(C)c3s2)C1 (stereo not given)	1.0	-4%	7	-27	0	Arbovirus anti repeat=4
O=C(Nc1ccnn1C1CCN(C(=O)c2cc(Cl)ccc2F)CC1)C1CCOC1 (stereo not given)	1.2	/	-2	/	/
CC(C)CCN1CCN(Cc2cn[nH]c2C2CCCCC2)CC1CCO (stereo not given)	-2.6	9%	-6	/	3
O=C(OCC(=O)N1CCN(C(=O)c2ccco2)CC1)c1sc2ccccc2c1Cl	-0.2	>100µM*	87	-52	7	Arbovirus anti repeat=0
COc1ccc(CN2CCOCCOCCOCCOCC2)cc1	0.5	-3%	-4	/	/
Cc1cccc(NC(=O)c2cccc(C(=O)Nc3cccc(C)c3)c2)c1	-2.6	/	-1	/	/
CN(CCNC(=O)C1CCN(S(=O)(=O)c2cnc[nH]2)CC1)Cc1ccccc1	1.7	-7%	-7	-29	-3
CCCC(=O)NCc1ccncc1	-1.6	1%	-4	/	7
COC(=O)c1ccc(N2CCCCC2)c(NC(=O)c2ccco2)c1	-0.6	/	13	/	/
O=C(O)c1sccc1S(=O)(=O)N1CCN(c2ccc(C(F)(F)F)cn2)CC1	-1.5	-6%	10	/	/
COc1ccc(C(=O)C[n+]2cccc(C)c2C)cc1[N+](=O)[O-]	2.7	0%	4	/	-6
CCOP(=O)(c1ccc(N(C)C)cc1)C(O)c1ccccc1 (stereo not given)	-2.7	-3%	7	-4	0
Cc1ccc(C)c(NS(=O)(=O)c2cc(C(=O)Nc3ccccc3-c3ccccc3)ccc2Cl)c1	15	6%	-2	-30	-14
Cc1cnc(C(=O)Nc2ccc(-n3cnnn3)cc2)cn1	1.1	3%	2	-4	2
CCC(C)Sc1nnc(CSc2nc3nc(C)cc(C)n3n2)o1 (stereo not given)	0.2	-7%	0	-39	2
CCN(CC)c1ccc(/C=N/NC(=O)Nc2ccccc2)cc1	-1.0	3%	10	/	7
C=CCn1nnnc1SCC(=O)Nc1ccc(C(=O)OC)cc1	0.0	/	-11	/	/
O=C(NCCC1=CCCCC1)C1CCN(S(=O)(=O)c2ccc(-n3cnnn3)cc2)CC1	/	-10%	/	-30	-9
CCOc1ccccc1CNC(CC)CO (stereo not given)	2.2	-3%	-3	/	1
CCN(CC)c1ccc(/C=N/c2sc3c(c2C#N)C2CCN3CC2)c(O)c1	/	27%	7	18	-20
O=C(CN1C(=O)CCS(=O)(=O)c2ccccc21)NCc1ccc(F)cc1	-1.0	1%	-22	-16	6
CCCCCN(C(=O)COC(=O)Cc1c(C)nc2ccccc2c1C)c1c(N)n(CCCC)c(=O)[nH]c1=O	0.7	/	-5	/	/
Cc1ccccc1OC1C(=O)N(Cc2ccc3c(c2)OCO3)C1c1sccc1C (stereo not given)	21	2%	-1	-11	9
COc1ccc(S(=O)(=O)N2c3ccccc3OCC2CC(=O)O)cc1 (stereo not given)	-0.9	/	-3	/	/
O=C(NCc1ccco1)c1ccc(-c2cccc(Cl)c2)o1	3.1	1%	0	/	-7
O=C(Cn1ncc2c([nH]c3ccccc32)c1=O)N1CCOCC1	-3.6	/	3	/	/
Cc1cc(C)nc(SCC(=O)N/N=C/c2cccn2-c2cccc(C(F)(F)F)c2)n1	1.9	-6%	5	15	2
Cc1ccc(CC(=O)Nc2cccnc2)cc1	-1.4	2%	-9	/	9
CC(C)(C)c1ccc(C(=O)Oc2ccccc2CCC(=O)O)cc1	-1.5	0%	-1	/	/
CC1=NNC(=O)C1CC(=O)N/N=C(\C)c1cccs1 (stereo not given)	1.3	-4%	0	/	7
Cc1ccc(S(=O)(=O)CCC(=O)Nc2ccc(F)cc2)cc1	5.9	-5%	-1	/	-3
Cc1ccn2cc(-c3cccc(S(=O)(=O)N4CCCCC4)c3)nc2c1	1.8	/	5	/	/
CCOc1ccc(NC(=O)c2nnn(CC(=O)Nc3ccccc3OC)c2N)cc1	0.0	0%	1	-50	13
COc1cnc(-c2ccccn2)nc1Oc1ccc(Cl)cc1	-0.5	72%	4	-36	-20
O=C(Nc1ccc[n+](CC(=O)c2cccc3ccccc23)c1)c1ccccc1	7.9	14%	11	-15	10
CC1CN(Cc2cnc(Cl)s2)CC(C)O1 (stereo not given)	/	-3%	/	/	2

The list goes on; it opens with the 3 that closed the last part.
SMILES	RecA intein inh	Mtb H37Rv	Mtb betalactam	YopH inh	Arbovirus anti	others
COc1cnc(-c2ccccn2)nc1Oc1ccc(Cl)cc1	-0.5	72%	4	-36	-20
O=C(Nc1ccc[n+](CC(=O)c2cccc3ccccc23)c1)c1ccccc1	7.9	14%	11	-15	10
CC1CN(Cc2cnc(Cl)s2)CC(C)O1 (stereo not given)	/	-3%	/	/	2
COC(=O)Nc1ccc(N=C(N)N[N+](=O)[O-])cc1	-0.6	-6%	-3	/	-2
CCCn1nnc(NC(=O)Cc2ccccc2)n1	-2.9	6%	-3	-4	4
COc1cccc(OC)c1C(=O)Nc1sc2c(c1C(N)=O)CCN(Cc1ccccc1)C2	-7.4	/	-8	/	/
CCOC(=O)c1c(-c2ccccc2Cl)csc1NC(=O)CSc1nc(C)cc(=O)[nH]1	24	-2%	2	-24	24
Cc1ccc(CN2CC(C(=O)Nc3ccccc3N3CCCC3)CC2=O)cc1 (stereo not given)	0.0	/	0	/	/
CCn1c(O)c(C(C#N)=C2N=c3ccccc3=N2)c2ccccc21	/	57%	0	-43	-1
O=C1CCCC(O)=C1C=NCCc1ccccc1	1.6	3%	-8	-32	0
COc1ccc(-n2nnnc2SCC(=O)Nc2ccccc2N2CCOCC2)cc1	-1.6	0%	-7	/	-7
Cc1ccc(C(=O)NC(C)c2ccccc2)cc1S(=O)(=O)N1CCOCC1 (stereo not given)	3.0	/	?	/	/
CCN1/C(=C2/SC(=S)N(C)C2=O)C=Cc2cc(C)ccc21	0.3	/	9	/	/
CC1CN(C2=Nc3cccc4cccc2c34)CC(C)O1 (stereo not given)	-127	7%	-9	/	9
Cc1ccnc(N/N=C/c2ccco2)n1	-5.0	3%	2	-8	6
COc1ccc(NC(=O)COC(=O)c2c(-c3ccccc3)noc2C)cc1	0.0	6%	95	-14	4
Cc1ccc(N2C(=O)C3C4C=CC(CNC(=S)Nc5cccc(Cl)c5)(O4)C3C2=O)cc1 (stereo not given)	2.2	1%	3	-3	2
CCCc1nnc(-c2cc(OC)c(OC)c(OC)c2)o1	1.0	1%	1	-20	3
COc1cccc(C(=O)Nc2nc(-c3ccc4c(c3)OCO4)cs2)c1	11	7%	85	-43	42*
C=CCOc1ccccc1NC(=O)CN1C(=O)CNC1=O	-0.6	/	5	/	/
COCCn1c(SCc2nc(N)nc(Nc3ccccc3C)n2)nc2ccccc2c1=O	0.1	2%	7	-20	-1
COc1cc(=O)[nH]c(=O)n1CC(=O)c1ccccc1	0.8	-8%	9	-12	6
CCCOc1ccc(C2C3=C(CCCC3=O)N(CC(=O)O)C3=C2C(=O)CCC3)cc1OCC	1.5	/	-4	/	/
C=CCOc1ccccc1CN(C(=O)CCl)c1ccc2c(c1)OCO2	81*	/	96	/	/
Cc1ccc(NC2CCCN(C(=O)c3cnsn3)C2)cc1C (stereo not given)	-0.6	/	3	/	/
CC(NCc1ccccc1C(F)(F)F)C(O)c1ccccc1 (stereo not given)	-0.7	6%	4	/	13
C=C(C)Cn1c(CCNC(=O)C(C)C)nc2ccccc21	1.3	-5%	-7	35	-2
COc1cccc(C(=O)Nc2cc(C(=O)NCCc3ccccc3)ccc2Cl)c1	-1.1	-2%	8	1	-11
COc1ccc(N(CC(=O)NC2CCCC2)C(=O)Cn2nnc(-c3ccc(OC)c(OC)c3)n2)cc1	-4.5	1%	-11	/	2
O=C(N/N=C/c1ccccc1OC(=O)N1CCOCC1)c1cccs1	0.0	12%	-1	/	-4
O=C(CSC1=NS(=O)(=O)c2cc(F)ccc2N1)NCc1ccccc1Cl	-0.6	/	-1	/	/
O=c1c2ccccc2oc2cc(OCc3cccc(F)c3)cc(O)c12	-3.3	/	12	/	/
Cc1c(OCC(=O)NCCCN2CCOCC2)ccc2c1oc(=O)c1ccccc12	0.3	/	2	/	/
O=[N+]([O-])c1ccc(N2CCCCC2)c(Cl)c1N1CCCCC1	1.5	0%	6	-12	3
Cc1cc(C)c(S(=O)(=O)NCC(=O)NCc2ccccn2)c(C)c1	1.7	-1%	-6	/	-1
CCOC(=O)/C=C/C(=O)Nc1ccc(Oc2ccccc2)cc1	3.7	1.2µM*	99	/	-13
COc1ccc(OC)c(NC(=O)COC(=O)CCCN2C(=O)c3ccccc3C2=O)c1	1.3	-4%	6	-4	-10
Cc1nc2ncnn2c(C)c1Cc1cccc(C(F)(F)F)c1	-1.8	3%	-2	/	2
COc1ccc(NC(=S)N2CCC(c3nc4ccccc4o3)CC2)c(OC)c1	-0.8	-2%	-4	/	9
CC(C)C(=O)Nc1cccc(C(=O)Nc2nnc(C(C)(C)C)s2)c1	-1.2	-1%	10	-37	9
CCc1ccc(NC(=O)COC(=O)CCCC2=NS(=O)(=O)c3ccccc3N2)cc1	-2.5	-3%	-4	/	14
COc1ccc(C2=NNC(c3cc(Cl)cc4c3OCOC4)C2)c(O)c1 (stereo not given)	-1.2	3%	7	/	-7
COCCn1nnnc1C(c1ccc(OC)cc1OC)N1CCN(c2ccccc2)CC1 (stereo not given)	-0.9	-2%	-3	-50	4
COc1ccc(N=Cc2c[nH][nH]c2=O)cc1	-4.4	>100µM*	95	-26	-17
COc1ccc2[nH]c(C(=O)NCc3ccccc3)cc2c1	0.4	-2%	-5	/	/
CCCNC(=O)COC(=O)c1ccccc1C(=O)N(C)C1CCCCC1	3.4	4%	0	-7	-2
COc1ccc(/C(C)=N/NC(=O)c2nnn(-c3nonc3N)c2CN(C)c2ccccc2)cc1	-2.6	/	6	/	/
O=C(Nc1nnc(-c2cccs2)o1)c1ccco1	0.4	71%	81	-29	9	Arbovirus anti repeat=-5
CC(=O)c1ccc(NC(=O)c2ccc(COc3ccccc3[N+](=O)[O-])o2)cc1	-1.5	-5%	8	-14	-6
COc1ccccc1OCC(=O)NNC(=S)NC(=O)c1ccco1	-0.5	64%	81	-4	-22
COc1ccc(CN2CCNC(=O)C2CC(=O)N(C)C2CCOCC2)c(F)c1 (stereo not given)	-0.1	/	-4	/	/

Arranged by molecular weight (lowest first): six of the compounds above
SMILES	RecA intein inh	Mtb H37Rv	Mtb betalactam	YopH inh	Arbovirus anti	others
Cc1ccc(CC(=O)Nc2cccnc2)cc1	-1.4	2%	-9	/	9
CCOC(=O)/C=C/C(=O)Nc1ccc(Oc2ccccc2)cc1	3.7	1.2µM*	99	/	-13
COc1cccc(C(=O)Nc2nc(-c3ccc4c(c3)OCO4)cs2)c1	11	7%	85	-43	42*
COc1ccc(C2=NNC(c3cc(Cl)cc4c3OCOC4)C2)c(O)c1 (stereo not given)	-1.2	3%	7	/	-7
O=C(OCC(=O)N1CCN(C(=O)c2ccco2)CC1)c1sc2ccccc2c1Cl	-0.2	>100µM*	87	-52	7	Arbovirus anti repeat=0
COc1ccc(/C(C)=N/NC(=O)c2nnn(-c3nonc3N)c2CN(C)c2ccccc2)cc1	-2.6	/	6	/	/
